# Screening data: PubChem, National Center for Advancing Translational Sciences (NCATS)
# NPC1 promoter act = activators of NPC1 promoter; AID 485313; Huh7 NPC1 promoter luciferase reporter, 24 h; hit rate 2.4% among 320,000; Potency, µM (series often up to 9.22 µM), for inactives: top-dose activation, hits mostly activators;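 also: potency is read from the fitted curve at half-maximal effect; % of control where 0% means no effect; nearly all actives have a fitted effect of over 60% in size; reporter is driven by a mutant NPC1 promoter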
#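 In 1536-well qHTS, Huh7 cells harboring an NPC1 promoter–luciferase construct received compound for 24 h; activation was quantified by luminescence following luciferase reagent addition.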
# uPA surface inh = inhibitors of cell surface uPA generation. hit rate 0.31% among 330,000. cell surface uPA generation assay, qHTS. Potency, µM (series often up to 38.3 µM), for inactives: at the top dose activity change, negative = inhibition, usual class: inhibitors. AID 540303; active = well fitted inhibition curve with a large enough effect; inconclusive = small, poorly fitted or top-dose-only effect; inactive = no such curve, though single readings can be large or run the other way; tested in mouse RAW 264.7 cells; also: potency is read from the fitted curve at half-maximal effect; % is scaled to controls: 0 for no effect and ±100 for the full control effect; nearly all actives have a fitted effect of over 55% in size
# ELG1 genotox = genotoxicity induction in ELG1-luciferase HEK293T cells | HEK293T ELG1-luciferase reporter, luminescence, 16 h | Potency, µM (series often up to 46 µM), for the others: at the top dose activity change, positive = activation, most hits filed as activators | hit rate 1.3% among 330,000 | AID 504466; also: potency is read from the fitted curve at half-maximal effect; % of control where 0% means no effect; nearly all actives have a fitted effect of over 60% in size
#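 DMSO vehicle served as control against compound-treated ELG1-luciferase HEK293T cells; exposure lasted 16 hr at 37 °C and 5% CO2, followed by ONE-Glo luminescence detection after 30 min.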
# FLuc counter = inhibits or activates purified firefly luciferase, miR-21 counter-screen; P08659; purified FLuc, Km substrates, luminescence inhibition; Potency, µM (series often up to 57.5 µM), for inactives: at the top dose activity change, negative = inhibition, usual class: inhibitors; hit rate 6.9% among 360,000; AID 588342;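 also: potency is read from the fitted curve at half-maximal effect; plate controls were vehicle for no effect and reference inhibitor for full effect; nearly all actives have a fitted effect of over 55% in size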
# Target sequence (P08659 whole entry, looked up): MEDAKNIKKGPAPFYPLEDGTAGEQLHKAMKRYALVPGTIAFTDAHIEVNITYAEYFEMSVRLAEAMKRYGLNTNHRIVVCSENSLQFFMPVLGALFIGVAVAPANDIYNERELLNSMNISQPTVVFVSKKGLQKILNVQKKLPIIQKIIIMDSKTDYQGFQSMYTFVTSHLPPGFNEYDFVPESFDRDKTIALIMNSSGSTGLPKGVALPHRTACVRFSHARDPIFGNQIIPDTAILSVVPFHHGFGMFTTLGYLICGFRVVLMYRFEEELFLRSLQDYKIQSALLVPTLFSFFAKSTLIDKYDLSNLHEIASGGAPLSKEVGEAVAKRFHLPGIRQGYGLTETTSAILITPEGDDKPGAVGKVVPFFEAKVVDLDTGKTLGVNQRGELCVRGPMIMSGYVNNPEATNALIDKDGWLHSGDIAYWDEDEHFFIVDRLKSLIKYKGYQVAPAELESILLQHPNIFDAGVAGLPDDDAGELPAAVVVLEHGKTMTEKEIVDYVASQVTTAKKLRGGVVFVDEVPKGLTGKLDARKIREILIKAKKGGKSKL
#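 Purified P. pyralis luciferase, 10 nM final, with Km-level 10 uM D-luciferin and 10 uM ATP in 50 mM Tris acetate pH 7.5, 10 mM Mg acetate, 0.01% Tween-20, 0.05% BSA; 6-point qHTS titration about 60 µM downward; luminescence read.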
# KCNH2 3.1 block = KCNH2 3.1 (human) potassium channel inhibition. U2OS KCNH2 3.1, thallium flux FluxOr; hits give low values. activity change, % (tested at about 1.8 µM). hit rate 0.95% among 340,000;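 active = maximum activity change below -70%; inconclusive = maximum activity change from -70% to -50%; inactive = maximum activity change above -50%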;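 also: thallium influx rate constant from kinetic fluorescence after stimulation buffer; % is scaled to controls: 0 for no effect and ±100 for the full control effect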
#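 Thallium flux read-out: FluxOr dye with Red40 quencher in HBSS/HEPES, 45 min at RT. Rate constants from kinetic reads were normalized to positive and negative DMSO controls. Cells: U2OS virally expressing the 3.1 isoform.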
# Tb PFK block = blocks T. brucei phosphofructokinase. AID 485367. Potency, µM (titrated, usually from 57.5 µM), for the others: at the highest dose activity, negative = inhibition, actives largely listed as inhibitors. T. brucei PFK, ADP-Glo luminescence. hit rate 0.17% among 330,000. O15648;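 also: potency is read from the fitted curve at half-maximal effect; 0% = uninhibited 1x PFK enzyme wells and -100% = no-enzyme wells; nearly all actives have a fitted effect of over 60% in size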
# Target sequence (O15648 whole entry, looked up): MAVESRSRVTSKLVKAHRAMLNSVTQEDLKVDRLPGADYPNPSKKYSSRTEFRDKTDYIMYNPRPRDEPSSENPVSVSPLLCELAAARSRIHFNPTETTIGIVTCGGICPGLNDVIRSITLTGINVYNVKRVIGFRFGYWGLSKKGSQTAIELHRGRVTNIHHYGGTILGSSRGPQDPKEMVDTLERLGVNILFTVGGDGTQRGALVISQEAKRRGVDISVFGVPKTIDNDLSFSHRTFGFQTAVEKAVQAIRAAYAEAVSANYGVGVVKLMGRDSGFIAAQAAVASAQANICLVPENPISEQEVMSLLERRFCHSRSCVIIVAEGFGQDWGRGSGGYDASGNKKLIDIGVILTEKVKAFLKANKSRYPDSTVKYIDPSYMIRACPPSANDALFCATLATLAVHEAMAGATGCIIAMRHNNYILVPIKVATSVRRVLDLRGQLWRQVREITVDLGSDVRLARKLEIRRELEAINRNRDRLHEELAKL
#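 Activity is normalized to no-enzyme wells (full inhibition) and 1.25 nM enzyme wells (no inhibition). Reaction: 0.5 mM F6P, 0.1 mM ATP, 45 min RT, ADP-Glo luminescence; concentration-response curves fitted and classed by quality.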
# Coupling enz = counter-screen for Giardia aldolase inhibitors: coupling enzyme system; activity change, negative = inhibition, % at 58.2 µM, hits read low; AID 2472; hit rate 0.67% among 290,000; coupling enzyme system counterscreen, AmpLite Red fluorescence; in the data active = activity change below about -30%; also: % is scaled to controls: 0 for no effect and ±100 for the full control effect
#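 Final compound at 57.5 uM, incubated 10 min at RT with coupling enzyme reagent (glyceraldehyde-3-phosphate), then 20 min with substrate and AmpLite Red detection. Fluorescence read at 525/598 nm; tests interference with the coupling assay, not aldolase inhibition.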
# Giardia kill = kills Giardia lamblia. Giardia lamblia trophozoite viability. activity change, % at 7.66 µM, hits read low. hit rate 0.15% among 340,000. AID 540267; in the data active = activity change below about -80%; inconclusive = between about -30% and that limit;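 also: parasites exposed to compound for two days anaerobically before the ATP read; % is scaled to controls: 0 for no effect and ±100 for the full control effect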
#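 Luminescence from cellular ATP indicates surviving trophozoites (100 cells/well) following 48 hrs anaerobic compound treatment at 37 deg C; signal develops 15-30 min at room temperature.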
# Rab9 promoter act = Rab9 promoter activation. hit rate 2.8% among 320,000. Potency, µM (top dose mostly 9.22 µM), inactives show at the highest dose activation, negative = inhibition, usual class: activators. Huh7 Rab9 promoter-luciferase reporter, luminescence, 24 h. AID 485297; also: potency is read from the fitted curve at half-maximal effect; % of control where 0% means no effect; nearly all actives have a fitted effect of over 60% in size
#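 Promoter activation is measured as luciferase luminescence in Huh7 cells stably transfected with a Rab9 promoter–luciferase construct, following 24 h compound exposure at 37 °C and 10 min reagent incubation at ambient temperature.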
# Active calls of the source: *; ? = inconclusive; · = no result given; & = joins results of further samples; [ ] = dose if it differs, or a comment. Unless noted, calls follow the shape of the dose curve; as a rule, active = well fitted curve in the direction sought with a large enough effect; inconclusive = small, poorly fitted or top-dose-only effect, or another doubt; inactive = no such curve, though single readings can be large; an effect the other way counts as inactive or inconclusive. This is a subset, so the mix of outcomes need not match the whole.
SMILES,NPC1 promoter act,uPA surface inh,ELG1 genotox,FLuc counter,KCNH2 3.1 block,Tb PFK block,Coupling enz,Giardia kill,Rab9 promoter act
CC(C)c1ccccc1NC(=O)CNCCc1ccc(C(F)(F)F)cc1,-2%,10%,-9%,-1%,0,0%,-4,1,-7%
CCCCC(=O)O[C@]1(C(=O)CO)CC[C@H]2[C@@H]3CCC4=CC(=O)CC[C@]4(C)[C@H]3[C@@H](O)C[C@@]21C,-4%,?,9%,2%,4,-4%,-4,30[activator],-2%
CCCCOc1ccc(CSCCN=C(N)N)cc1,-15%,-12%,15µM*,21µM*,7,0%,-2,-3,-13%
COC(=O)c1c(NC(=O)CN2CCN(Cc3ccc4c(c3)OCO4)CC2)sc(C)c1C,1%,2%,-1%,2%,-37,3%,0,-5,2%
C=C1c2c(Cl)ccc(O)c2C(O)=C2C(=O)[C@]3(O)C(O)=C(C(N)=O)C(=O)[C@@H](N(C)C)[C@@H]3[C@@H](O)C12 (stereo not given in full),-3%,4%,1%,2%,-3,?,·,22,0%
O=C(CNCC1CCCO1)Nc1ccccc1N1CCCCCC1 (stereo not given),0%,-3%,-1%,2%,5,2%,2,-11,-7%
CCCOc1ccc(/C=N/Nc2ccc(C(=O)O)cc2)c(OCCC)c1,8%,11%,?,5.4µM*,-4,-2%,11,-15,?
NCCCC(O)(P(=O)(O)O)P(=O)(O)O,·,·,·,·,·,·,-3&-1&1,·,·
COc1ccc(CN2CCN(C(C)C(=O)N(C)Cc3cccc(F)c3)CC2)cc1OC (stereo not given),0%,8%,-1%,0%,-48,0%,-17,-13,1%
CCCCn1c2c(c(=N)c3c1CCC3)CCC2,-25%,-9%,-15%,-8%,-22,1%,0,-6,-32%[inhibitor]
Fc1ccc([C@H]2CCNCC2COc2ccc3c(c2)OCO3)cc1 (stereo not given in full),·,·,·,·,·,·,1,·,·
Nc1ncnc2c1ncn2[C@@H]1O[C@H](CO)C[C@H]1O,·,?,·,·,-3,·,·,13,·
Cc1cc(C(C)(C)C)c(O)c(C(C)(C)C)c1,-8%,2%,0%,6%,8,-3%,5&2,4,10%
NCc1cccc(-n2cccn2)c1,2%,1%,3%,1%,3,-4%,-3,-2,-3%
C[C@@H]1CN(c2c(F)c(N)c3c(=O)c(C(=O)O)cn(C4CC4)c3c2F)C[C@H](C)N1,-8%,·,·,-2%,·,-3%,-1&-12,·,-10%
CC(C)CC[n+]1ccccc1/C=C/c1ccc(N(C)C)cc1,-40%[inhibitor],-19%,-11%,3%,10,2%,0,-8,-41%[inhibitor]
Cc1cc([N+](=O)[O-])ccc1N,-9%,-7%,-1%,0%,-4,-14%,·,3,-4%
N[C@@H](Cc1cc(I)c(Oc2cc(I)c(O)c(I)c2)c(I)c1)C(=O)O,·,-3%,·,·,-31,·,·,14,·
CN1C=C/C(=C\c2cc[n+](C)c3ccccc23)c2ccccc21,-39%[inhibitor],?,12%,17µM*,3,-13%,-62*,-2,-32%[inhibitor]
Nc1ccc(S(N)(=O)=O)cc1,·,6%,·,·,4,·,0&-1,1,·

# Full records, quoted from the list. Order of screens: NPC1 promoter act	uPA surface inh	ELG1 genotox	FLuc counter	KCNH2 3.1 block	Tb PFK block	Coupling enz	Giardia kill	Rab9 promoter act
# CCCCOc1ccc(CSCCN=C(N)N)cc1 reads -15%	-12%	15µM*	21µM*	7	0%	-2	-3	-13%
# Nc1ccc(S(N)(=O)=O)cc1 reads ·	6%	·	·	4	·	0&-1	1	·

# (listing goes on)
SMILES,NPC1 promoter act,uPA surface inh,ELG1 genotox,FLuc counter,KCNH2 3.1 block,Tb PFK block,Coupling enz,Giardia kill,Rab9 promoter act
O=C(CNCc1cccs1)Nc1ccc(N2CCCCCC2)cc1,12%,-10%,0%,-11%,-13,-7%,-12,-24,-2%
CC1(C)SC2C(NC(=O)C3(N)CCCCC3)C(=O)N2C1C(=O)O (stereo not given),·,2%,·,·,-16,·,·,12,·
CCN1CCN(CCOCCOc2ccccc2)CC1,9%,24%,-5%,-2%,8,?,-2,4,-4%
CCN(CC)CCNc1ccc(CO)c2sc3ccccc3c(=O)c12,-22%,?,2%,6%,-10,?,-2&-3&1,32[activator],-30%[inhibitor]
CCC(=C(c1ccc(O)cc1)c1ccc(OCCN(C)C)cc1)c1ccccc1,·,·,·,·,5,·,·,·,·
COc1cc(NS(=O)(=O)c2ccc(N)cc2)nc(OC)n1,1%,11%,1%,7%,-8,4%,0&1&10,-8,-2%
O=C(O)c1cccnc1Oc1ccccc1,-2%,-1%,0%,2%,-7,1%,1,-18,1%
O=C(O)c1ccc(N/N=C/c2ccc(F)c(F)c2)cc1,0.32µM*,5%,5.2µM*,1.7µM*,-11,?,7,-20,0.32µM*
COc1cccc(CN2CCN(Cc3cc(OC)c(OC)cc3[N+](=O)[O-])CC2)c1,1%,·,1%,5%,25,-8%,0,-1,-7%
Cc1ccc(S(=O)(=O)NC2CCCCC2)cc1,-2%,6%,1%,-1%,-4,0%,·,-1,-2%
COc1ccc(CCNCc2c(-c3ccccc3)n(C)c3ccccc23)cc1,-3%,-2%,-7%,-1%,?,2%,3,4,-2%[1.84 µM]
COc1ccc(C2CC3(CC(C)(C)NC(SC)=N3)Oc3cc(O)cc(C)c32)cc1 (stereo not given),1%,-9%,-3%,-1%,?,1%,-4,9,-11%
O=C(NCCCN=C1NS(=O)(=O)c2ccccc21)c1ccc(F)cc1,-2%,0%,4%,4%,-7,0%,1,-7,7%
CN(C(=O)C(Cl)Cl)c1ccc(OC(=O)c2ccco2)cc1,-7%,6%,3%,-10%,2,-1%,7&2,-16,-1%
Cc1ccc(OCCN2CCN(CC(O)Cn3c4ccccc4c4ccccc43)CC2)cc1 (stereo not given),-4%,·,-4%,13%,·,0%,-5,·,0%
CC1(C)CC(N2CCCCC2)=CC(=[N+]2CCCCC2)C1,-37%[inhibitor],-12%,-18%,-2%,4,-5%,1,-18,-24%
CCCn1c2c(c(=N)c3c1CCC3)CCCC2,-19%,-10%,-1%,-2%,-1,0%,5,-13,-36%[inhibitor]
CC[N+](CC)(CC)CCOc1ccc(/C=C/c2ccccc2)cc1,3%,?,-4%,-2%,5,-2%,·,-20,0%
CNNCc1ccc(C(=O)NC(C)C)cc1,·,2%,·,·,11,·,1,26,·
CCOC(=O)c1sc2nc(CSc3ccccc3)nc(N3CCCN(C)CC3)c2c1C,-4%,?,-15%,-3%,-16,-3%,2,-3,-39%[inhibitor]
COCCNCc1nc2sc(C)c(-c3ccccc3)c2c(=O)[nH]1,-1%,-3%,-2%,0%,-4,0%,-1,10,1%
COc1ccc(-c2cn(-c3ccccc3)c3[n+]2CCS3)cc1,-25%&-20%,-16%&-9%,-2%&-5%,2%,-3&3,1%&1%,1&0,11&1,-32%&-26%[inhibitor]
C=CCn1c(C)c(/C=C/c2cc[n+](C)cc2)c2ccccc21,-20%,-7%,-8%,2%,19,1%,-1,23,-23%
Cc1cccc(Cl)c1OCCCn1ccnc1,0%,-16%,0%,5%,4,3%,-2,?,-9%
C[N+]1(CC(=O)OCCCc2ccccc2)CCCC1,1%,-1%,3%,4%,-5,6%,4,3,-1%

# An excerpt of these results, with two lines to a compound:
# Order of values: NPC1 promoter act | uPA surface inh | ELG1 genotox | FLuc counter | KCNH2 3.1 block | Tb PFK block | Coupling enz | Giardia kill | Rab9 promoter act
COc1ccc(CCNCc2c(-c3ccccc3)n(C)c3ccccc23)cc1
    -3% | -2% | -7% | -1% | ? | 2% | 3 | 4 | -2%[1.84 µM]
COc1ccc(C2CC3(CC(C)(C)NC(SC)=N3)Oc3cc(O)cc(C)c32)cc1 (stereo not given)
    1% | -9% | -3% | -1% | ? | 1% | -4 | 9 | -11%
O=C(NCCCN=C1NS(=O)(=O)c2ccccc21)c1ccc(F)cc1
    -2% | 0% | 4% | 4% | -7 | 0% | 1 | -7 | 7%
CN(C(=O)C(Cl)Cl)c1ccc(OC(=O)c2ccco2)cc1
    -7% | 6% | 3% | -10% | 2 | -1% | 7&2 | -16 | -1%
Cc1ccc(OCCN2CCN(CC(O)Cn3c4ccccc4c4ccccc43)CC2)cc1 (stereo not given)
    -4% | · | -4% | 13% | · | 0% | -5 | · | 0%
CC1(C)CC(N2CCCCC2)=CC(=[N+]2CCCCC2)C1
    -37%[inhibitor] | -12% | -18% | -2% | 4 | -5% | 1 | -18 | -24%
CCCn1c2c(c(=N)c3c1CCC3)CCCC2
    -19% | -10% | -1% | -2% | -1 | 0% | 5 | -13 | -36%[inhibitor]
CC[N+](CC)(CC)CCOc1ccc(/C=C/c2ccccc2)cc1
    3% | ? | -4% | -2% | 5 | -2% | · | -20 | 0%
CNNCc1ccc(C(=O)NC(C)C)cc1
    · | 2% | · | · | 11 | · | 1 | 26 | ·
CCOC(=O)c1sc2nc(CSc3ccccc3)nc(N3CCCN(C)CC3)c2c1C
    -4% | ? | -15% | -3% | -16 | -3% | 2 | -3 | -39%[inhibitor]
COCCNCc1nc2sc(C)c(-c3ccccc3)c2c(=O)[nH]1
    -1% | -3% | -2% | 0% | -4 | 0% | -1 | 10 | 1%
COc1ccc(-c2cn(-c3ccccc3)c3[n+]2CCS3)cc1
    -25%&-20% | -16%&-9% | -2%&-5% | 2% | -3&3 | 1%&1% | 1&0 | 11&1 | -32%&-26%[inhibitor]
